Assay outcomes: PubChem BioAssay, several laboratories
PABP FP inh = PABP-poly(A) binding inhibition | P11940 | PABP-poly(A) RNA binding, fluorescence polarization | inhibition, % at 35 µM | hit rate 1% among 290,000 | AID 2014;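 active = 50% or more with normal probe brightness, or confirmed in later tests; about a fifth of its hits are not listed in these tables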;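 also: calls also rest on retests at 20 µM and on dose response follow-up; controls were probe without protein and protein plus probe with vehicle; some compounds called inactive have numbers as strong as hits; many hits fall short of the cut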
Target sequence (P11940 whole entry, looked up): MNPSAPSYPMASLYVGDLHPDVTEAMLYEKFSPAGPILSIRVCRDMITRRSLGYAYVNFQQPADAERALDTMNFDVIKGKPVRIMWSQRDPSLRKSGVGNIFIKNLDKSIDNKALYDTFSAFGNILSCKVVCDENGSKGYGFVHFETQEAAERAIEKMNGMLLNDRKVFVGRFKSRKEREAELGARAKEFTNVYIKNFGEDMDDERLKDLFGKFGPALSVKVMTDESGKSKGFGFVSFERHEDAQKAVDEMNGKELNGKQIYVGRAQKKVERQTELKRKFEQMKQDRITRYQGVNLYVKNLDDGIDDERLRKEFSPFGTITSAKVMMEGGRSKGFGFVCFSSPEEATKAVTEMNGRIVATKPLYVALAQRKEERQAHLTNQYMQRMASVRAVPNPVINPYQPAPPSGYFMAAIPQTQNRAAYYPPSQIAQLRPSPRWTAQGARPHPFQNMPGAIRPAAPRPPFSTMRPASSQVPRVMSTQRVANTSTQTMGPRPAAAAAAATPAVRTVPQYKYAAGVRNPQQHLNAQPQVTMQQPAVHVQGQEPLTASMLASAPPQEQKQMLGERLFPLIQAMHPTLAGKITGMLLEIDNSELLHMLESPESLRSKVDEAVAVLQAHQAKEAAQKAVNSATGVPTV
Rce1 inh = yeast Ras-converting enzyme inhibition; calls only; Q03530; yeast membranes, quenched prenylated peptide cleavage fluorescence; hit rate 0.27% among 290,000; AID 2563;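 active = fall in fluorescence gain of 50% or more versus controls, with final raw signal at or below 3038400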;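 also: plate controls were neutral control wells for no effect and wells lacking membranes for full effect; tested at 10 µM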
Yeast UUG start = alters start codon recognition fidelity in yeast; S. cerevisiae UUG-firefly luciferase reporter, luminescence/redox ratio; activity score, % at 18.7 µM; hit rate 0.13% among 350,000;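 active = replicate mean at a twofold rise or more, about +100% in these data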;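 also: firefly luciferase made from a UUG start codon reports start codon fidelity; reporter light over untreated wells divided by growth signal over untreated wells; some hits fall short of that in this replicate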
eIF4H FP inh = inhibitors of RNA binding by human eIF4H; hit rate 0.94% among 290,000; eIF4H fluorescence polarization binding assay; AID 2012; Q15056; inhibition, % at 35 µM;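 active = 50% or more with normal probe brightness, or confirmed in later tests; about a fifth of its hits are not listed in these tables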;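 also: calls also rest on retests at 20 µM and on dose response follow-up; 0% = protein and probe with vehicle and 100% = probe without protein; strong numbers were not always called active; many hits fall short of the cut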
CSC inhib = cancer stem cell inhibition | cancer stem cell-like cells viability, luminescence | inhibition, % at 7.5 µM | hit rate 1.1% among 300,000 | AID 2717;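 active = mean at 75% or more and at least half the replicates too; tested in HMLE shEcad cells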;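 also: 0% = median of negative and 100% = median of positive control wells; the first replicate is given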
Env fusion inh = blocks HIV Env-driven cell-cell fusion; HeLa-JRFL Env/CEM21 cell fusion, luciferase; inhibition, % at 12.3 µM; hit rate 1.1% among 360,000; AID 651610;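 active = mean replicate inhibition score of at least 50 and every replicate individually at or above 50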;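 also: 0% = plate neutral controls and 100% = maraviroc near 300 nM; one replicate is shown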
MT1-MMP act inh = inhibitors of human MT1-MMP activation; P50281; HT1080 RFP-PRO-GFP cells, GFP/RFP ratio fluorescence, overnight; percent of plate control window, DMSO zero; GFP/RFP ratio change, % at 20 µM; hit rate 0.061% among 360,000; AID 651647;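 active = GFP/RFP ratio change of at least 30% with cell ATP level not reduced by more than half and red fluorescence within 50% of control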; also: strong numbers were not always called active
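Compound: 20 µM single dose, 1% DMSO / System: HT1080 RFP-PRO-GFP cells / Controls: DMSO and RFP-L50D-GFP cell wells / Read-out basis: GFP/RFP fluorescence ratio / Schedule: overnight compound exposure at 37 °C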
MT1-MMP act inh RFP = further read-out of MT1-MMP act inh, marked with its call; RFP signal change, %; measured here: RFP expression control read;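 0 = vehicle wells; hits needed this value within 50% of zero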
Starred values were filed as active, the others as inactive; i = inactive; nt = no result given; + = active, no number.

SMILES	PABP FP inh	Rce1 inh	Yeast UUG start	eIF4H FP inh	CSC inhib	Env fusion inh	MT1-MMP act inh	MT1-MMP act inh RFP
O=C(CCc1cn(Cc2ccc(F)cc2)c2ccccc12)N1CCOCC1	0	i	-9	3	0	15	-3	-3
O=C(NCC1CCCO1)c1ccc(Cn2c(=S)[nH]c3ccccc3c2=O)cc1 (stereo unspecified)	14	i	-9	1	8	-13	-3	-4
CC(=O)c1ccc(Nc2nc(C(N)Cc3ccc(N)cc3)cs2)cc1 (stereo unspecified)	nt	nt	-11	nt	nt	-3	-3	2
CC(=O)Nc1cc2c(c([N+](=O)[O-])c1C)C(C)(C)CC2(C)C	nt	nt	-4	nt	nt	-6	-3	2
Cc1cccc(Oc2coc3cc(O)ccc3c2=O)c1	2	i	8	-9	5	-4	1	1
CCCCn1c(=O)n(CC(=O)Nc2ccc(C)c(Cl)c2)c(=O)c2c1ncn2Cc1ccco1	27	i	-2	2	8	nt	-5	0
COc1ccc(Cn2c(=O)[nH]c3cc(C(=O)NC4CCCC4)ccc3c2=O)cc1	-4	nt	-10	-11	4	5	4	-3
Cc1onc(-c2c(F)cccc2Cl)c1C(=O)N1CCCCC1	-2	i	-7	-19	-9	1	3	3
CCOCCCn1c(=O)c2ccccc2n2c(=S)[nH]nc12	11	i	-10	0	4	9	-5	-3
COc1ccccc1N1CCN(C(=O)CSc2nnc(NC(=O)C(C)C)s2)CC1	-7	i	-4	6	-21	10	3	4
COc1ccc2[nH]cc(CCNC(=O)Nc3ccccc3C)c2c1	13	nt	-14	1	-1	-84	4	-2
CS(=O)(=O)/C(C#N)=C/c1cccn1S(=O)(=O)c1cccc2ccccc12	nt	nt	-21	nt	nt	0	2	-3
CCCn1c(SCCC(=O)O)nc2ccccc21	0	i	nt	-2	-3	22	7	4
CCc1ccc(N(CC(=O)N2CCOCC2)S(C)(=O)=O)cc1	11	i	-27	3	-8	-2	-1	0
COc1cc(Cl)c(C)cc1NC(=O)CN(C)Cc1cccc(OC)c1OC	0	i	nt	-12	23	43	2	-9
N#CCSCC(=O)Nc1ccc(Cl)cc1	-4	i	-11	-9	-3	-18	1	3
Cc1c(C(=O)N2CCOCC2)sc(NC(=O)C(C)C)c1C#N	-4	i	-9	6	-11	-1	2	7
COCCN(C(=O)CSc1nc2nc(C)cc(C)n2n1)c1c(N)n(Cc2ccccc2)c(=O)[nH]c1=O	2	i	nt	2	-16	-1	1	9
C/C=C(\C)C(=O)N1CC2(CC(c3cccc(NC(=O)CCCCC)c3)=NO2)C[C@@H]1C(N)=O (stereo partly specified)	-3	i	-3	-12	-2	-12	2	-4
c1cncc(-c2nc(-c3ccco3)cs2)c1	47	i	-12	37	1	nt	0	5

Complete entries from above. Order of values: PABP FP inh | Rce1 inh | Yeast UUG start | eIF4H FP inh | CSC inhib | Env fusion inh | MT1-MMP act inh | MT1-MMP act inh RFP
Cc1c(C(=O)N2CCOCC2)sc(NC(=O)C(C)C)c1C#N as listed: -4 | i | -9 | 6 | -11 | -1 | 2 | 7
CCc1ccc(N(CC(=O)N2CCOCC2)S(C)(=O)=O)cc1 as listed: 11 | i | -27 | 3 | -8 | -2 | -1 | 0

The results go on:
SMILES	PABP FP inh	Rce1 inh	Yeast UUG start	eIF4H FP inh	CSC inhib	Env fusion inh	MT1-MMP act inh	MT1-MMP act inh RFP
CCC(C)NC(=O)c1ccc(C2SCC(=O)N2Cc2ccccc2)cc1 (stereo unspecified)	4	i	nt	6	7	5	8	2
O=C(C1CCCN(S(=O)(=O)c2ccc(Br)s2)C1)N1CCN(c2ccccc2)CC1 (stereo unspecified)	-4	i	-6	-8	-17	25	-6	-17
CCCC(C(=O)NCc1ccco1)N(C(=O)CNS(=O)(=O)c1ccc(Cl)cc1)C1CCCC1 (stereo unspecified)	9	i	-5	4	-11	nt	1	-5
Cc1ccc(C2OC34CCCCCC3C(C#N)(C(=N)O4)C2(C#N)C#N)cc1 (stereo unspecified)	7	i	nt	18	-10	15	-4	3
COC(=O)c1cc2c(ccn2-c2ccc(F)cc2)n1Cc1ccc(OC(C)=O)cc1	-8	i	nt	-4	-7	nt	-7	-11
CC1(C)CC(=O)C(C(C2=C(O)CC(C)(C)CC2=O)c2ccc(Br)s2)C(=O)C1 (stereo unspecified)	-5	i	-18	8	59	-39	-3	-3
Cc1cnc(C(=O)OCC(=O)Nc2ccc(C)c(S(=O)(=O)N3CCCCC3)c2)cn1	-7	nt	nt	-2	3	20	0	6
COC(=O)c1c(C)oc2c1cc(NS(=O)(=O)c1ccc(C(=O)O)cc1)c1ccccc12	15	i	6	25	-4	7	-4	4
O=C(NCc1c[nH]c2ccccc12)c1ccccc1	nt	i	-3	nt	-13	6	2	3
COc1ccc(CN(C)C(=O)C2CSC3(C)CCC(=O)N23)cc1OC (stereo unspecified)	nt	nt	-9	nt	-10	nt	-4	-2
CCOC(=O)CC(=O)CSc1nc(CC)c(C)cc1C#N	11	i	-6	13	11	1	-4	2
COc1ccc(-c2nnc(C(C)Nc3cccc(C(=O)NC4CC4)c3)o2)cc1 (stereo unspecified)	nt	nt	-6	nt	7	-6	-2	-5
O=C(NCC(=O)N(c1cccc(F)c1)C(C(=O)NC1CCCC1)c1ccncc1)c1cccs1 (stereo unspecified)	0	i	-10	-5	-9	16	-4	-2
O=C(Cn1nnc(-c2ccccc2)n1)c1ccccc1	4	i	-9	-10	nt	nt	-1	2
COc1cccc(CN(C)C(=O)c2cc(COc3c(F)cccc3F)on2)c1	4	i	-9	-5	7	9	2	2
COc1cc(NC(=O)CN2C(=O)CN(C)C2=O)c(C)cc1[N+](=O)[O-]	-10	i	-5	2	-10	1	4	4
C=CCNC(=S)NNc1nc2sc3c(c2c(=O)[nH]1)CC(C)(C)OC3	7	i	-24	3	-9	4	6	2
Cc1ncsc1CCSc1n[nH]c(=O)n1-c1ccccc1	0	i	-19	2	-7	nt	-4	-4
CSc1nc2ccc(NS(=O)(=O)c3ccc4c(c3)OCCO4)cc2s1	-9	i	-12	-3	-3	nt	0	-15
CCOC(=O)c1[nH]nc2c1C(=O)N(Cc1ccccc1)C2=O	6	i	-17	-18	-8	nt	0	1
NC(=O)[C@@H]1CC2(CC(c3cccc(NC(=O)CC(c4ccccc4)c4ccccc4)c3)=NO2)CN1C(=O)c1ccc(Cl)cc1 (stereo partly specified)	0	+	-15	5	37	-15	-5	-10
O=C(CNC(=O)c1ccccc1)OCC(=O)c1cccs1	7	i	-11	5	1	9	-1	0
O=C(C[n+]1ccc(C(=O)N/N=C/c2ccc(Cl)cc2Cl)cc1)c1ccccc1	-2	i	-32	-3	10	9	6	-5
CC1(C)CC(=O)C2=C(C1)N(Cc1cccnc1)C(=O)C2(NC(=O)c1cccnc1)C(F)(F)F (stereo unspecified)	4	nt	-43	-10	-16	-9	3	7
CCc1nnc(NC(=O)CCC(=O)NCCc2ccc(OC)c(OC)c2)s1	0	i	nt	-13	6	3	1	3
Cc1ccc(NC(=O)Cn2sc3ccccc3c2=O)cc1	nt	nt	-24	nt	nt	4	3	2
CCc1nc2cc(Cl)c(Cl)cc2nc1CC	4	i	nt	0	-15	3	0	4
Cc1nn(Cc2ccccc2)c(C)c1NC(=O)Cn1nc([N+](=O)[O-])c(Cl)c1C	0	nt	-17	5	-12	nt	3	5
COc1ccccc1CNC(=O)CSc1nc2nc(C)cc(C)n2n1	-4	i	9	1	-1	1	1	5
CCn1nnnc1SCCSc1nnnn1CC	-2	i	-3	3	-8	-29	0	4
CCCCNc1ccc(C(CC(N)=O)NC(=O)c2cc(C)cc(C)c2)cc1[N+](=O)[O-] (stereo unspecified)	4	i	-16	-9	13	8	4	3
CC(OC(=O)c1cccs1)C(=O)NCc1cccs1 (stereo unspecified)	-8	i	-4	4	-11	-315	4	1
CCCCOC(=O)Nc1nnc(Cc2ccc(Cl)cc2)s1	-8	i	-12	0	2	-5	-2	0
CCC(c1nnc(SCC(=O)Nc2cc(S(C)(=O)=O)ccc2Cl)n1Cc1ccccc1)N(C)C (stereo unspecified)	45	i	5	26	3	-22	0	4
Cc1ccc(F)c([C@H]2[C@@H]3C=CCC[C@@]3(C)C(=O)N2Cc2ccccc2)c1	-3	i	-12	-16	14	21	-10	-9
N#CCc1ccc(OC(=O)c2ccncc2)cc1	nt	i	0	nt	-4	2	0	2
CN1C(=O)C(CC(=O)NCCc2ccccc2)N(NC(=O)c2cccc(F)c2)C1=S (stereo unspecified)	10	i	12	-2	6	14	0	-2
Cc1oc2c(C)c(O)ccc2c(=O)c1-c1ccc2ccccc2n1	-5	i	1	-13	-5	-23	21	4
COc1cc2c(cc1OC)C(c1cc3cc4c(cc3[nH]c1=O)OCO4)N(C(=O)C(C)C)CC2 (stereo unspecified)	-4	i	-6	-12	1	nt	3	1
CCc1nc(-c2ccc(OC)c(OC)c2)cc2cc(OC)c(OC)cc12	1	i	nt	1	3	nt	7	-4
CCCN(CCC)CCNC(=O)C1c2ccccc2C(=O)N2CCc3ccccc3C12 (stereo unspecified)	6	i	nt	-4	-10	-5	0	1
Cc1cc(=O)nc2c3ccccc3n(CC(=O)NCCC3=CCCCC3)n12	2	i	-14	2	-8	1	0	1
CCn1c(NC(=O)c2cccs2)nc2ccccc21	0	i	-13	-1	-7	-112	1	9

Some of the entries so far, with two lines to a compound:
Every second line gives: PABP FP inh	Rce1 inh	Yeast UUG start	eIF4H FP inh	CSC inhib	Env fusion inh	MT1-MMP act inh	MT1-MMP act inh RFP
- CCCCNc1ccc(C(CC(N)=O)NC(=O)c2cc(C)cc(C)c2)cc1[N+](=O)[O-] (stereo unspecified)
    4	i	-16	-9	13	8	4	3
- CC(OC(=O)c1cccs1)C(=O)NCc1cccs1 (stereo unspecified)
    -8	i	-4	4	-11	-315	4	1
- CCCCOC(=O)Nc1nnc(Cc2ccc(Cl)cc2)s1
    -8	i	-12	0	2	-5	-2	0
- CCC(c1nnc(SCC(=O)Nc2cc(S(C)(=O)=O)ccc2Cl)n1Cc1ccccc1)N(C)C (stereo unspecified)
    45	i	5	26	3	-22	0	4
- Cc1ccc(F)c([C@H]2[C@@H]3C=CCC[C@@]3(C)C(=O)N2Cc2ccccc2)c1
    -3	i	-12	-16	14	21	-10	-9
- N#CCc1ccc(OC(=O)c2ccncc2)cc1
    nt	i	0	nt	-4	2	0	2
- CN1C(=O)C(CC(=O)NCCc2ccccc2)N(NC(=O)c2cccc(F)c2)C1=S (stereo unspecified)
    10	i	12	-2	6	14	0	-2
- Cc1oc2c(C)c(O)ccc2c(=O)c1-c1ccc2ccccc2n1
    -5	i	1	-13	-5	-23	21	4
- COc1cc2c(cc1OC)C(c1cc3cc4c(cc3[nH]c1=O)OCO4)N(C(=O)C(C)C)CC2 (stereo unspecified)
    -4	i	-6	-12	1	nt	3	1
- CCc1nc(-c2ccc(OC)c(OC)c2)cc2cc(OC)c(OC)cc12
    1	i	nt	1	3	nt	7	-4
- CCCN(CCC)CCNC(=O)C1c2ccccc2C(=O)N2CCc3ccccc3C12 (stereo unspecified)
    6	i	nt	-4	-10	-5	0	1
- Cc1cc(=O)nc2c3ccccc3n(CC(=O)NCCC3=CCCCC3)n12
    2	i	-14	2	-8	1	0	1
- CCn1c(NC(=O)c2cccs2)nc2ccccc21
    0	i	-13	-1	-7	-112	1	9
